From PubChem BioAssay
TAR Tat displ: HIV-1 TAR-Tat binding disruption. HIV-1 TAR RNA, Tat peptide displacement FRET; active compounds read high. z-score (test concentration not listed). 100,000 compounds, 0.6% hits. AID 1259389;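 also: score is relative to mean and SD of negative controls; some compounds called inactive have numbers as strong as hits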
CDC25B CDK2 inh: human CDC25B-CDK2/CyclinA binding inhibition. 94,000 compounds, 0.72% hits. z-score (concentration not given with the values). P30305+P24941. HTRF CDC25B-CDK2/CyclinA binding, anti-His/anti-Flag; active compounds read high;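 also: score is relative to mean and SD of negative controls; strong numbers were not always called active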
* marks the source's active call; other numbers are inactive results; / = not tested or not shown.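 The calls were made as follows: active = z-score from 3 up in half or more of its runs; inactive = the rest.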

Sample of the layout (two entries):
Below each SMILES: CDC25B CDK2 inh | TAR Tat displ
> COc1ccc(NS(=O)(=O)c2ccc(-n3cccn3)cc2)c(OC)c1
  / | 0.7
> C/C(=C\c1ccc(N)cc1)c1nc2ccccc2[nH]1
  -2.12 | 2.71

Main list, from the start:
Below each SMILES: CDC25B CDK2 inh | TAR Tat displ
> COc1ccc(NS(=O)(=O)c2ccc(-n3cccn3)cc2)c(OC)c1
  / | 0.7
> C/C(=C\c1ccc(N)cc1)c1nc2ccccc2[nH]1
  -2.12 | 2.71
> CC1Sc2ccc(S(=O)(=O)N(C)c3ccc(Br)cc3)cc2NC1=O (stereo unspecified)
  / | 1.17
> O=C(Cn1ncc2c([nH]c3ccccc32)c1=O)NCCN1CCCC1
  / | -1.24
> O=c1[nH]cnc2onc(-c3ccc(F)cc3)c12
  -3.02 | 1.76
> Cn1cc(NC(=O)NCC2COc3ccccc3O2)c2ccccc2c1=O (stereo unspecified)
  / | 1.24
> Cc1ccc2nc(COc3ccc(NC(=O)C(C)Oc4ccccc4)cc3)cc(=O)n2c1 (stereo unspecified)
  / | -0.22
> O=C(O)CCC(=O)Nc1sc2c(c1C(=O)Nc1ccccc1)CCC2
  -0.07 | 1.48
> S=c1[nH]nc(-c2ccco2)n1Cc1ccccc1
  -2.65 | /
> O=C(CCC1CCCC1)N1CCc2c([nH]c3ccccc23)C1c1cccnc1 (stereo unspecified)
  / | 2.12
> COC(=O)c1sc2ccccc2c1S(=O)(=O)N1CCN(c2ccc(F)cc2)CC1
  / | -1.55
> COc1ccc(Cc2nnc3n2N=C(C)CS3)cc1
  / | 1.35
> CCc1ccc(Nc2cc(-c3ccccc3)nc(C)n2)cc1
  1.02 | 0.18
> C=CCOC(=O)C1=C(C)NC2=C(C(=O)CC(C)(C)C2)C1c1cccc(O)c1 (stereo unspecified)
  -1.96 | 2.87
> CCOC(=O)c1c[nH]c2c(c(C)nn2-c2ccc(F)cc2)c1=O
  -1.28 | 0.32
> O=C(NNC(=S)Nc1cccc(Cl)c1)c1ccncc1
  -2.25 | /
> O=C(c1cccs1)N(Cc1cccs1)c1ccccn1
  -2.13 | -0.36
> CCOC(=O)C1CCN(C(=O)Cn2ncn3nc(-c4ccco4)cc3c2=O)CC1
  -1.22 | 0.49
> Nc1cccc(S(=O)(=O)NCC2CCCO2)c1 (stereo unspecified)
  -2.11 | 0.25
> CC(C)CNC(=O)c1cccc(NC(=O)c2ccccc2-c2ccccc2C(=O)O)c1
  -3.05 | /
> Cc1ccc(OC(=O)CSc2nnc(-c3ccc4c(c3)OCO4)o2)c(C)c1
  -4.07 | 0.83
> CC(C)n1c(SCC(=O)O)nc2c1c(=O)[nH]c(=O)n2C
  -0.48 | /
> Cc1cc(C)c(C=C2C(=O)OC(C)(C)OC2=O)[nH]1
  -0.87 | /
> O=S(=O)(c1ccc(Cl)cc1)N(Cc1cc(CN2CCOCC2)cs1)c1ccc(F)cc1
  / | -0.54
> CCOc1ccc(Br)cc1CNc1ccc2[nH]c(=O)[nH]c2c1
  7.51* | -4.46
> O=C1CSC(=O)N1CCS(=O)(=O)c1ccc(Cl)cc1
  -1.13 | /
> Cn1c(=O)oc2cc(S(=O)(=O)N3CCCC(C(=O)NCc4ccc5c(c4)OCO5)C3)ccc21 (stereo unspecified)
  -0.21 | -1.87
> CCOc1ccc2c(=O)c(Oc3ccccc3Br)coc2c1
  0.55 | 1.9
> COc1ccc(S(=O)(=O)Nc2cccc(-c3ccc(N4CCCC4)nn3)c2)c(OC)c1
  / | 1.6
> Nc1nc(C(=O)N2CCOCC2)nn1S(=O)(=O)c1ccccc1
  -0.53 | /
> N[C@@H](CCCC(=O)O)C(=O)O
  0.26 | /
> CCN(CC)C(=O)Cn1c(=O)n(CC2CCC(C(=O)NC(C)C)CC2)c(=O)c2sccc21 (stereo unspecified)
  / | -0.73
> COc1ccc(C2C(C(=O)OC(C)C)=C(C)NC3=C2C(=O)CC(C)(C)C3)c(OC)c1 (stereo unspecified)
  -1.74 | -0.08
> COc1cccc(N2CCc3c(C)c(C#N)c4nc5ccccc5n4c32)c1
  -0.87 | /
> CC(C)Cn1c(=O)c2sccc2n2c(CCCC(=O)N(C)Cc3ccco3)nnc12
  -0.77 | 1.98
> CSc1ccc(CNc2nc3ccccc3n3cnnc23)cc1
  -0.25 | 0.33
> CCC(=O)N1c2ccccc2CC1C(=O)NCCN(CC)CC (stereo unspecified)
  / | 1.27
> Cn1nc(-c2ccc(S(N)(=O)=O)s2)cc1C(F)(F)F
  -1.02 | /
> COc1ccc(-c2nnc3c4ccccc4c(C)nn23)cc1S(=O)(=O)N(C)C1CCCCC1
  0.6 | 0.41
> CN(C(=O)c1cc(-c2ccc(Br)cc2)n[nH]1)C1CCCCC1
  / | -0.62
> Cc1ccccc1-c1nc2scc(CCNS(=O)(=O)c3cc(F)ccc3F)n2n1
  / | 1.41
> O=C(c1cc(-c2cccs2)[nH]n1)N1CCN(Cc2ccc3c(c2)OCO3)CC1
  / | -2.04
> Cc1nn2c(=O)cc(CSc3nnc(-c4cccc(Cl)c4)o3)nc2s1
  -1.42 | 1.02
> CN(CCc1ccncc1)[C@H]1CS(=O)(=O)C[C@@H]1S(=O)(=O)c1cccs1
  -0.59 | -0.1
> COc1ccc(OC)c(Nc2ncc3c(n2)CCNC3)c1
  -1.11 | 0.1
> O=C(CC1C(=O)N(c2cccc(Cl)c2)C(=O)N1Cc1cccs1)Nc1ccc(Cl)cc1 (stereo unspecified)
  -0.15 | /
> C[C@H](NC(=O)/C(C#N)=C/c1ccc(O)c(O)c1)c1ccccc1
  -1.44 | /
> CCc1ccc(N2CC(O)=C(c3nc4ccc(C)cc4[nH]3)C2=N)cc1
  0.1 | 2.05
> O=C1c2ccccc2C(=O)c2c1oc(C(F)(F)F)c2C(=O)c1ccc2ccccc2c1
  9.29* | /
> C=CCNc1oc(/C=C/c2ccc(F)cc2)nc1C#N
  -1.29 | -1.5
> O=c1ccc(-c2ccc(S(=O)(=O)Nc3ccccc3Cl)o2)n[nH]1
  / | -0.9
> CCn1cc(S(=O)(=O)c2ccc(C)cc2)c(=O)c2cc(F)c(F)cc21
  -0.16 | 1.75
> CC1=NS(=O)(=O)c2cc(C(=O)NCCC3=CCCCC3)ccc2N1CC(C)C
  / | 0.32
> O=C(CSc1ccsc1[N+](=O)[O-])N1CCN(C2CCCCC2)CC1
  0.33 | -0.05
> CCOC(=O)c1c(NC(=O)CCC(=O)O)sc2c1CCC(C)C2 (stereo unspecified)
  -2.12 | -0.28
> Cc1ccc(Cl)cc1N1CCN(S(=O)(=O)c2c(C)[nH]c(=O)[nH]c2=O)CC1
  -0.88 | /
> Cc1ccc(C2CC(=O)c3nnc4c(-c5ccccc5)c(C)nn4c3C2)cc1 (stereo unspecified)
  -1.61 | -0.77
> CCN(CCO)c1ncnc2onc(-c3ccc(F)cc3)c12
  / | -5.57
> Cc1ccc(Cn2c(N3CCOCC3)nc3c2c(=O)[nH]c(=O)n3C)cc1
  -0.78 | 0.22
> Cc1ccc(-c2nn3c(-c4ccncc4)nnc3c3ccccc23)cc1
  -2.57 | 3.41

Next compounds follow:
Below each SMILES: CDC25B CDK2 inh | TAR Tat displ
> Cc1sc2c(c1C)CSC(C(=O)Nc1cc(F)ccc1F)=C2
  / | -3.48
> C=CCOc1cccc(C2c3c(-c4cc(C)ccc4O)n[nH]c3C(=O)N2CCO)c1 (stereo unspecified)
  -2.01 | -0.29
> COc1cccc(-c2cc(-c3ccc(C)o3)c(C#N)c(N)n2)c1
  -0.4 | -0.22
> Nc1nc(SCc2nc(-c3ccc(Cl)cc3)no2)n[nH]1
  -1.54 | /
> O=C(CCCN1CCC(O)(c2cccc(C(F)(F)F)c2)CC1)c1ccc(F)cc1
  -2.77 | /
> CC1=C(c2ccc(C(C)C)cc2)S(=O)(=O)N=C1N1CCC(C(=O)NC(C)C)CC1
  / | -0.06
> Cc1ccc(-n2c(-c3ccc(Cl)cc3)c[n+]3c2CCC3)cc1
  -1.51 | 2.08
> CCCCN(CC)C(=O)Cn1cc2c(n1)-c1c(oc(C(=O)N3CCCC3)c1C)CC2
  / | 0.14
> Cc1cc(NC(=O)C2CCN(c3ncnc4onc(C)c34)CC2)no1
  / | 1.6
> CC1CCN(C(=O)Cn2cnc3c2c(=O)n(C)c(=O)n3C)CC1
  -0.53 | 1.62
> Cc1ccc(-c2nn3c(-c4ccncc4)nnc3s2)cc1
  -3.15 | 0.06
> C=CCNC(=O)c1ccc2c(=O)n3nc(Nc4ccccc4)sc3nc2c1
  / | 2
> CCOC(=O)CNC(=O)N1CC(CC)Sc2ccccc21 (stereo unspecified)
  / | 0.93
> CC(C)Cc1nn2c(=O)cc(COC(=O)c3ccccc3)nc2s1
  / | -0.07
> O=C(Nc1ccc2c(c1)COCO2)c1cc2ccccc2oc1=O
  -0.61 | /
> O=C1CSc2ccc(S(=O)(=O)N3CCOCC3)cc2N1
  / | 1.44
> Clc1ccc(/C=C/c2nn3c(-c4ccncc4)nnc3s2)cc1
  -0.53 | -0.48
> Brc1c(C[n+]2ccccc2)nc2ccccn12
  -0.69 | /
> O=C(Nc1ccccc1)C1CCCN(c2ncnc3c2nc2n3CCCCC2)C1 (stereo unspecified)
  / | -0.19
> Cc1ccc(C)c(N2CCN(c3ncnc4c3nc3n4CCCCC3)CC2)c1
  / | 0.77

Exported in CSV form: entries from further up.
molecule,CDC25B CDK2 inh,TAR Tat displ
Cc1ccc(C)c(N2CCN(c3ncnc4c3nc3n4CCCCC3)CC2)c1,/,0.77
O=C(Nc1ccc2c(c1)COCO2)c1cc2ccccc2oc1=O,-0.61,/
CCOC(=O)CNC(=O)N1CC(CC)Sc2ccccc21 (stereo unspecified),/,0.93
Cc1ccc(-c2nn3c(-c4ccncc4)nnc3s2)cc1,-3.15,0.06
Cc1sc2c(c1C)CSC(C(=O)Nc1cc(F)ccc1F)=C2,/,-3.48

The list continues:
Below each SMILES: CDC25B CDK2 inh | TAR Tat displ
> CCN1CCN(c2nc3c(c(=O)n(C)c(=O)n3C)n2C(C)C)CC1
  -0.91 | 0.48
> O=C1CC(c2cccc(O)c2)Nc2ccc3ccccc3c21 (stereo unspecified)
  1.23 | 0.33
> Cc1nc(N2CCN(C)CC2)c2c(C)c(C(=O)N3CCN(c4cccc(Cl)c4)CC3)sc2n1
  0.07 | /
> Cc1ccc(C2Nc3cc(C)c(C)cc3NC3=C2C(=O)CC(C)(C)C3)o1 (stereo unspecified)
  0.44 | -1.87
> O=C1N(Cc2cccc(Br)c2)c2ccccc2S(=O)(=O)N1c1ccc(F)cc1
  / | 1.51
> Cc1cc(NC(=O)C2=CC(c3cccs3)=NS(=O)(=O)N2C)no1
  -2.95 | 1.86
> Cc1nn(S(=O)(=O)c2ccc(C(C)(C)C)cc2)c(C)c1S(=O)(=O)N1CCCC1
  / | 0.65
> CC1(C)Cc2nc3sc4c(NCc5cccnc5)ncnc4c3cc2CO1
  / | 0.28
> CC1CCN(S(=O)(=O)c2ccc3c(c2)N(CC(=O)N2CC(C)CC(C)C2)C(=O)CS3)CC1 (stereo unspecified)
  0.22 | 2.07
> CCN1CCCC1CNC(=O)c1cc(S(=O)(=O)CC)c(N)cc1OC (stereo unspecified)
  -1.77 | 1.51
> CC12c3ccccc3C(c3ccccc31)C1C(=O)N(c3ccccc3)C(=O)C12 (stereo unspecified)
  -1.51 | 0.31
> CCOC(=O)c1c(C)n(-c2ccccc2)c2c1cc(OC(C)=O)c1ccccc12
  -1.99 | /
> CCO/C=C(/C#N)S(=O)(=O)CS(=O)(=O)/C(C#N)=C/OCC
  -0.45 | /
> CC1(C(=O)NC2CCCCC2)Cn2c(cc3occc32)C(=O)N1CCCN1CCCCC1 (stereo unspecified)
  / | 2.33
> C=CCN(CC(=O)OC)S(=O)(=O)c1ccc(C)cc1
  -0.79 | /
> O=C1C2ON(c3ccccc3)C(c3cccnc3)C2C(=O)N1c1ccc(F)cc1 (stereo unspecified)
  -2.53 | -0.06
> CCc1nn(CCCC(=O)NCCN2CCOCC2)c(=O)c2cc3oc(C)cc3n12
  -0.61 | 1.15
> Cc1cc2c(c(=O)n1CC1CCCO1)C(c1cccc(Br)c1)C(C#N)=C(N)O2 (stereo unspecified)
  -0.22 | /
> N#Cc1nc(-c2ccc(COc3ccccc3)o2)oc1N1CCOCC1
  -1.4 | -0.35
> O=c1c2nnn(Cc3ccc(Cl)cc3)c2ncn1C/C=C/c1ccccc1
  -1.59 | 0.07
> COc1ccc(NC(=O)CSc2nnc(Cn3c(=O)sc4ccccc43)n2C)c(OC)c1
  -1.66 | /
> O=C(NCCCc1ccccc1)c1cnc2sc(N3CCCC3)nn2c1=O
  / | -0.39
> COc1ccc(C(=O)Oc2ccc3c(c2)C(C)=CC(C)(C)N3)cc1
  0.08 | -0.53
> COc1cc(C)nc(N(CCO)CCO)n1
  -0.71 | 1.13
> O=C(CN1N=NC2C(=O)N(c3ccc(F)c(Cl)c3)C(=O)C21)Nc1ccc2c(c1)OCCO2 (stereo unspecified)
  / | 0.41
> O=C(CCCc1ccccc1)N1N=C(C2CCCCC2)CC1(O)C(F)(F)F (stereo unspecified)
  -1.76 | /
> COc1ccc(S(=O)(=O)c2cnc3ccc(OC)cc3c2Nc2ccccc2)cc1
  -2.84 | -0.01
> Cc1cc(CN2CCN(C(=O)c3ccco3)CC2)cs1
  / | 1.02
> CNC(=O)C1CCC(Cn2c(=O)[nH]c3ccsc3c2=O)CC1 (stereo unspecified)
  / | 0.63
> O=C(NCc1ccccn1)c1ccc(Cn2c(SCc3ccccc3)nc3ccncc32)cc1
  0.78 | 0.35
> CSc1ccc(C(c2c(O)cc(C)n(Cc3ccco3)c2=O)N2CCC(C)CC2)cc1 (stereo unspecified)
  / | 0.7
> CCOC(=O)c1c(C)[nH]c(C)c1S(=O)(=O)N1CCc2ccccc21
  / | 1.98
> COCCN1C(=O)c2[nH]nc(-c3ccccc3O)c2C1c1ccc(OC)c(OC)c1 (stereo unspecified)
  -2.22 | 1.87
> Cc1cccc(C)c1OCc1nc2c3cnn(-c4cccc(F)c4)c3ncn2n1
  0.15 | 1.25
